Tg IFNy HTS: blocks Toxoplasma gondii growth in the presence of IFN-gamma; activity change, negative = inhibition, %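 (about 20 µM by stock and volumes)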; 3.8% of 69,000 active; AID 1259416; Toxoplasma gondii growth in IFN-gamma-treated host cells; active compounds read low; reference of the scale not given here;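 active = below -70%; inconclusive = fit judged invalid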;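 note: host cells are HeLa cells infected with Toxoplasma gondii; parasite growth read as luciferase light; one replicate is shown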
* marks the source's active call; other numbers are inactive results; i = inactive; ? = inconclusive; & = joins results of further samples. Only part of the results is shown; rates above refer to the full screens.

SMILES | Tg IFNy HTS
CC(=O)N[C@H]1C[C@@H](c2cnc(-c3ccccn3)nc2)O[C@@H](C2CCCCC2)C1 | -10
CCN1C(=O)C2(CCN(C(=O)N(C)C)CC2)CC12CCN(C(=O)CC(C)C)CC2 | -22
O=c1[nH]c2ccccc2nc1-c1c[nH]c2ccccc12 | -66
CCN1CCCC(C)(C(=O)Nc2ccc(OC)c(NC(=O)c3ccco3)c2)C1 (stereo not given) | 1
CCn1c(CC2CCNCC2)nn(Cc2cc(C(C)C)on2)c1=O | -6
Cc1nc(C(F)(F)F)ccc1-c1nnc(SCc2cc(F)cc(F)c2)o1 | -5
CN(Cc1ncc[nH]1)Cc1ccccc1CN1CCCC1 | -3
O=C1CC[C@@H](CN(Cc2cccnc2)Cc2ncc[nH]2)N1 | -6
CCCNC(=O)[C@@H]1[C@@H](CO)[C@@H]2Cn3c(ccc(C4=CCCC4)c3=O)[C@@H]2N1C(=O)c1cnccn1 | 6
Cc1ccccc1CN1C[C@@H]2c3nc(NCC4CC4)ncc3CS(=O)(=O)[C@H]2C1 | -31
Cc1cc2oc(C(=O)NC(c3ccccc3)c3ccnn3C)cc(=O)c2cc1C (stereo not given) | -26
Cc1ccc(S(=O)(=O)N2CCC3(CCC(C(=O)NCC4CC4)O3)CC2)cc1 (stereo not given) | -42
C[C@H]1CN([C@@H](C)CO)C(=O)c2ccccc2-c2ccccc2CO[C@H]1CN(C)Cc1ccc2c(c1)OCCN2C | -55
O=C(CCC1CCCC1)N1CCC2(CC1)Nc1cc(F)ccc1-n1cccc12 | -53
CC1N=C2c3ccccc3N=C(SCc3ccc(Cl)cc3)N2C1=O (stereo not given) | 7
Cc1nc2cc(-c3ccccc3)nn2c(C)c1Sc1nccc(-c2cccnc2)n1 | 3
Cc1cc(C)n(C)c(=O)c1C(=O)N1CCOC(C(F)(F)F)C1 (stereo not given) | -49
COc1ncccc1-c1ccc(NC(=O)c2cccnc2)c(C)c1 | -85*
O=C(c1ccccc1)N1CC[C@@H]2Oc3ccccc3S(=O)(=O)N(CC3CC3)[C@@H]2CC1 | -24
COC(=O)c1snc(-c2c(Cl)cccc2Cl)c1C(=O)OC | 18

Copied from the listing (2 entries):
SMILES | Tg IFNy HTS
O=C(c1ccccc1)N1CC[C@@H]2Oc3ccccc3S(=O)(=O)N(CC3CC3)[C@@H]2CC1 | -24
COC(=O)c1snc(-c2c(Cl)cccc2Cl)c1C(=O)OC | 18

(list continues)
SMILES | Tg IFNy HTS
COc1cc(N2CCC3OCCCC3(COCCN(C)C)C2)ncn1 (stereo not given) | 2
O=C(O)c1cc(-c2ccncc2)cc(S(=O)(=O)N2CCCC2)c1 | 2
CCO[C@H]1CC[C@@H]2[C@@H]1OCCN2C(=O)c1cc2cc(Cl)ccc2o1 | 0
Cc1c(S(=O)(=O)c2ccc(Cl)cc2)csc1C(=O)O | -32
CCc1ccnc(NC(=O)NS(=O)(=O)c2ccc(C)cc2)c1 | -24
C[C@@H]1CN([C@H](C)CO)C(=O)c2ccccc2-c2ccccc2CO[C@H]1CN(C)S(=O)(=O)c1cccc(C#N)c1 | -55
O=C(O)COc1ccccc1-n1cnnc1-c1ccco1 | 25
Cc1cccc(-n2nc(CC(C)C)nc2-c2ccnc(-n3cnnc3)c2)c1 | -8
O=C1COc2cc(NC(=O)C(c3ccc(F)cc3)N3CCOCC3)ccc2N1 (stereo not given) | -1
N#Cc1n[nH]nc1-c1ccc(OC(=O)c2ccc(Cl)cc2)cc1 | 39
COc1ccc(CCNC(=O)c2cncc(NS(=O)(=O)c3ccc4c(c3)OCCO4)c2)cc1OC | 41
CCc1ccc2c(C3CN(C(C)=O)C3)ncn2c1 | 125
Cc1cc(C(F)(F)F)nc2nc(NC(=O)c3cccs3)ccc12 | -3
Cc1nc(CC(=O)N2CCn3c(C(N)=O)cnc3C2)c(C)s1 | -4
Cc1noc(C)c1NC(=O)N(C)C[C@@H]1OCCCC[C@@H](C)Oc2ccc(NC(=O)Nc3ccc(C(F)(F)F)cc3)cc2C(=O)N([C@@H](C)CO)C[C@H]1C | 118
CC(C)c1cc(C(=O)N(C)Cc2cccc(-n3cccn3)c2)nc(N)n1 | -7
CCCS(=O)(=O)N1CCC(Cc2nnc(SC)n2C)CC1 | 6
CN(CCNCCC(=O)Nc1cccc(Cl)c1)S(C)(=O)=O | 6
O=C(NCCc1csc(-c2ccc(Cl)cc2)n1)C(=O)Nc1ccc2c(c1)OCO2 | -50
Cc1nc(C2CCNCC2)cc(N(C)CCc2noc(C(C)C)n2)n1 | -3

Reprinted from the part before: 6 entries; new compounds follow.
SMILES | Tg IFNy HTS
Cc1noc(C)c1NC(=O)N(C)C[C@@H]1OCCCC[C@@H](C)Oc2ccc(NC(=O)Nc3ccc(C(F)(F)F)cc3)cc2C(=O)N([C@@H](C)CO)C[C@H]1C | 118
CC(C)c1cc(C(=O)N(C)Cc2cccc(-n3cccn3)c2)nc(N)n1 | -7
CCCS(=O)(=O)N1CCC(Cc2nnc(SC)n2C)CC1 | 6
CN(CCNCCC(=O)Nc1cccc(Cl)c1)S(C)(=O)=O | 6
O=C(NCCc1csc(-c2ccc(Cl)cc2)n1)C(=O)Nc1ccc2c(c1)OCO2 | -50
Cc1nc(C2CCNCC2)cc(N(C)CCc2noc(C(C)C)n2)n1 | -3
O[C@@H]1CN(c2ncccn2)CC[C@H]1N1CCN(CCc2ccccc2)CC1 | -15
CC(C)Cc1cc(C(=O)N2CCC(n3cc(-c4ccccn4)nn3)CC2)on1 | -10
Cc1nc(-c2cccc(F)c2)sc1CCNC(=O)c1ccccc1Br | 20
COCCNC(=O)C[C@H]1CC[C@H]2[C@@H](COc3ccc(NS(=O)(=O)c4ccc(Cl)cc4)cc3C(=O)N2C)O1 | 12
COc1ccc(C(O)c2nccc3cc(OC)c(OC)cc23)cc1OC (stereo not given) | 0
CC(C)CN(C[C@H]1N[C@H](CO)[C@@H]1c1ccccc1)C(=O)C1CCCCC1 | -9
O=C(N(CCN(Cc1ccccc1)C(=O)C(F)(F)F)Cc1ccccc1)C(F)(F)F | 9
CS(=O)(=O)N1C[C@@H]2COC[C@@]2(COc2ccc(C#N)cn2)C1 | 4
Cc1oc(C2CCN(S(=O)(=O)c3ccc(F)c(F)c3)CC2)nc1C(=O)N1CCCC1 | 19
CCSc1nc2ccccc2nc1SCC | -14

Continued; the last 2 above are carried over.
SMILES | Tg IFNy HTS
Cc1oc(C2CCN(S(=O)(=O)c3ccc(F)c(F)c3)CC2)nc1C(=O)N1CCCC1 | 19
CCSc1nc2ccccc2nc1SCC | -14
Cc1ccsc1[C@@H]1CCN(Cc2cnc(-c3ccccn3)nc2)C[C@H]1O | 7
O=c1cc(CSc2nc(NCc3ccc(Cl)cc3)c3ccccc3n2)nc2ccc(Cl)cn12 | -34
CCOc1cccc(C2c3[nH]c4ccccc4c3CCN2C(=O)c2ccc(F)cc2)c1 (stereo not given) | -98*
O=C(Nc1cc(F)ccc1F)c1c(O)c2ccccc2n(-c2ccccc2)c1=O | 3
Fc1ccc(-c2c3cccc(C(F)(F)F)c3nn2Cc2ccc(F)cc2Cl)cc1 | -41
CCS(=O)(=O)N1CCC2(CC1)OC(=O)C(C)=C2C(=O)NCCCN1CCOCC1 | 44
Cc1nc(C2CCCCN2C(=O)c2ccccc2)ncc1C(=O)N1CCCCC1 (stereo not given) | -45
CC(C)c1cc(C(=O)N2CCC(c3cc(-c4ccco4)n[nH]3)CC2)n(C)n1 | -37
COc1cccc(C(=O)N2CCCC(CO)(Cc3ccccc3)C2)c1OC (stereo not given) | -42
Cn1cc(C(=O)N2CCC3(CCC(=O)N3CC3CC3)CC2)cn1 | -56
O=C(c1cn[nH]n1)N(Cc1ccccc1)Cc1nccs1 | -3
CCC(=O)NCc1ccccc1-c1ccc2c(c1)OCCO2 | 11
Cc1noc(C[C@@H]2C[C@@H]3CN(S(C)(=O)=O)C[C@@H]3O2)n1 | -40
Cc1nn(C)c(C)c1CCNS(=O)(=O)Cc1ccc(Cl)c(Cl)c1 | 13
COc1ccccc1-c1cn(CC[C@@H]2CC[C@@H](NC(=O)C3CCCCC3)[C@@H](CO)O2)nn1 | -54
CCN1C(=O)CO[C@H]2CN(C(=O)C3CCOCC3)C[C@@H]21 | -34
CCN(Cc1ccccc1)C(c1ccc(C)cc1)c1nnnn1C1CCCC1 (stereo not given) | 8
COCCC(=O)N1CCO[C@]2(CCC[C@H]2COCc2nccs2)C1 | 7
C[C@@H]1CCCCO[C@H](CN(C)C(=O)Nc2ccc3c(c2)OCO3)[C@@H](C)CN([C@H](C)CO)C(=O)c2cc(NS(=O)(=O)c3ccc(F)cc3)ccc2O1 | 218
C/C=C/c1ccccc1[C@H]1[C@@H](CO)N(C(=O)Nc2ccccc2F)[C@H]1C#N | 17
Cn1ccnc1-c1ccc(NCC2COCCO2)nn1 (stereo not given) | 62
Cc1nc2nnc3ccc(C(=O)Nc4cccnc4)cc3c2n1C1CCCC1 | -12
Cn1cccc1C(=O)N1CCN(Cc2cccnc2)c2ncccc2C1 | 1
O=C(NC1=NCCS1)c1ccccc1 | 29
COc1ccccc1NC(=O)N1C[C@H](O)COC[C@@H]2O[C@H](CC(=O)N3CCC(Cc4ccccc4)CC3)CC[C@H]21 | ?
COCc1ncn2c1CN(C(=O)c1occc1C)CC2 | -1
COCCc1noc(-c2ccc(-c3cccc4c3OCC4)nc2)n1 | 42
CC(=O)Nc1ccc(-c2nccn2-c2ccc(-c3n[nH]c(C)n3)cc2)cc1 | -1
Cc1cc(C)c(CNCCS(=O)(=O)N2CCCC2)c(C)c1CO | -4
O=C(c1coc(-c2ccccc2)n1)N1CCN(Cc2noc(-c3ccccc3)n2)CC1 | -1
COCc1nnn2c1CN(Cc1cnn(C)c1)CC2 | 69
CCN1CCC2(CC1)OC(=O)C(C)=C2C(=O)Nc1ccccc1Br | 166
COC(=O)Nc1nc2ccc(SC(C)C)cc2[nH]1 | -66&-65
COc1ccc(S(=O)(=O)Nc2ccc3c(c2)OC[C@H](C)NC[C@H](C)[C@@H](OC)CN(C)C3=O)cc1 | 107
O=C(OC(C(=O)NCc1ccc2c(c1)OCO2)c1ccc(F)cc1)c1cccs1 (stereo not given) | -11
CCN(Cc1nc(C)no1)C(=O)c1cccc(C#CC(C)(C)O)c1 | -10
COc1ccc(NC(=O)N(C)C[C@H]2OCCCC[C@H](C)Oc3ccc(NC(=O)c4ccncc4)cc3C(=O)N([C@@H](C)CO)C[C@H]2C)cc1 | i
CCn1cncc1CNc1ncnc2c1CCN(C(=O)C1CC1)C2 | 2
C[C@H](CO)N1C[C@H](C)[C@@H](CN(C)Cc2ccc(Cl)c(Cl)c2)Oc2ccc(NC(=O)CCCN(C)C)cc2C1=O | 12
COc1cccc(-c2ccc3c(c2)[C@H]2[C@H](CCN2C(=O)c2ccccn2)[C@@H](CO)N3)c1 | 27
Cc1ccsc1[C@@H]1CCN(C(=O)c2cnc(-c3ccccc3)[nH]2)C[C@H]1O | 36
CCOc1ccc(C(=O)NCCc2csc(-c3cccc(C)c3)n2)cc1OCC | i
O=C(NC1Cc2ccccc2C1)[C@H]1N[C@H]2c3cccc(=O)n3C[C@H]2[C@@H]1CO | 4
COc1ccc(-n2cc(-c3ccnc(N(C)Cc4cc(C)[nH]n4)n3)cn2)cc1 | -26
CO[C@H]1CO[C@@]2(CCCN(C(=O)c3ccc4ncccc4c3)C2)C1 | 0
C[C@@H]1CCCCO[C@@H](CN(C)Cc2ccncc2)[C@@H](C)CN([C@H](C)CO)C(=O)c2cc(NC(=O)Cc3ccccc3)ccc2O1 | 72
CCCN1CCN(C(=O)c2nc(-c3ccc(C)cc3)n3c2CCCCC3)CC1 | 240
Cc1c(C)n(Cc2ccccc2)c2nc[nH]c(=O)c12 | -27
COc1ccc(-c2ccc([C@@H]3[C@@H](CO)N4C(=O)CN(Cc5ccccc5)C[C@@H]34)cc2)cc1 | -24
CN(C)CCCNC(=O)c1ccc2ccc(N3CCN(Cc4cccnc4)CC3)n2c1 | -87*
(continued)
SMILES | Tg IFNy HTS
CCOc1ccc(-c2nc(CN(c3ccc(OC)cc3)S(=O)(=O)c3ccccc3)c(C)o2)cc1 | -34
CCN1CC[C@H]2OC[C@H](C(=O)NCc3cnc(C)cn3)C[C@H]2C1 | -54
Cc1ccc(NC(=O)Cn2c(=O)ccc3cc(S(=O)(=O)N4CCCC4)ccc32)c(C)c1 | 71
Cc1ccc(S(=O)(=O)N(C)C[C@H]2Oc3c(NS(C)(=O)=O)cccc3C(=O)N([C@H](C)CO)C[C@@H]2C)cc1 | 57
Nc1ncnc2c1ncn2C1OC(CO)C(O)C1O (stereo not given) | 33
O=c1c(OS(=O)(=O)c2ccccc2)c(-c2ccccc2)oc2ccccc12 | -23
CCn1c2c(ccc1=O)CC(NCc1cnn(C)c1)CC2 (stereo not given) | 8
O=C(NC1(N2CCCCC2)C(=O)c2ccccc2C1=O)c1ccc(C(F)(F)F)cc1 | 35
C[C@@H]1CN([C@@H](C)CO)C(=O)CCCn2nncc2CO[C@@H]1CN(C)C(=O)CCC(F)(F)F | -55
OC[C@H](O)[C@H](O)[C@@H](O)[C@@H](O)[C@@H]1SC(c2ccccc2)=NN1c1ccccc1 | 54
C#CCOc1ccccc1-c1c(-c2ccccc2)ncn1C | 39
CC(C)COC1C2CCC1N(S(=O)(=O)c1cccs1)C2 (stereo not given) | -9
C=C(C)CN(C)C(=O)C12CC3CC(C)(CC(C)(C3)C1)C2 | 3
Cc1nc(CCNC(=O)[C@H]2CCCN2C(=O)c2ccccc2Cl)cs1 | -39
O=C(Nc1nncs1)c1cc(-c2cccnc2)c(N2CCOCC2)s1 | 4
Cc1cc2oc(=O)cc(C)c2cc1NC(=O)C1CCOC1 (stereo not given) | -46
C/C=C/c1ccc([C@H]2[C@@H](CO)N[C@@H]2CN(CC(C)C)C(=O)c2ccccn2)cc1 | -12
CC=Cc1ccc2n(c1=O)C[C@H]1[C@H](CO)[C@@H](C(=O)NCC3CC3)[C@@H]2N1C(=O)Nc1cc(F)ccc1F (mixture of isomers) | -14

Sorted by formula weight (falling): part of the list above.
SMILES | Tg IFNy HTS
O=C(OC(C(=O)NCc1ccc2c(c1)OCO2)c1ccc(F)cc1)c1cccs1 (stereo not given) | -11
CCO[C@H]1CC[C@@H]2[C@@H]1OCCN2C(=O)c1cc2cc(Cl)ccc2o1 | 0
O=C(O)c1cc(-c2ccncc2)cc(S(=O)(=O)N2CCCC2)c1 | 2

Assay outcomes: PubChem, Broad Institute
